# Assay outcomes (PubChem BioAssay)
# Ecoli growth: E. coli growth inhibition. Escherichia coli growth, OD600, 23 h; active compounds read low. OD600 absorbance (no concentration beside the values). actives 0.21% (n = 330,000);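 active means OD600 absorbance below the run mean of sample wells minus 3.6 SD, in any replicate, cut at about 0.56 in these data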;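 further: stock transfer was 300 nL into about 60 µL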
# HNF4A DNA FP: change in binding of human HNF4 alpha to DNA | P41235 | HNF4a-FITC DNA binding, fluorescence polarization, 1 h | activity change, % at 10 µM | actives 0.3% (n = 360,000) | AID 1224865; in the data active means activity change above about 30%, passing the limit was not always enough;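 further: controls were the assay level and a saturating level of protein; the project sought stronger binding though the title names inhibitors; some compounds called inactive have numbers as strong as hits; positive values seem to mean higher polarization but the record does not say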
# rRNA inh HTS: inhibits bacterial ribosomal RNA function over humanized ribosomes | AID 720706 | E. coli WT GFP vs humanized-ribosome RFP mutants, fluorescence, 24 h; active compounds read low; DMSO median 0, no signal -100 | GFP signal change (wild-type ribosome), % (concentration not given with the values) | actives 1.6% (n = 350,000);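 active means significant combined selectivity score with lowered wild-type GFP, culture density cut under 30%, mutant RFP and density less affected; inactive means any of these conditions unmet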; further: one replicate is shown; some compounds called inactive have numbers as strong as hits
# B2AR ag: agonists of human beta-2 adrenergic receptor inducing internalization; actives 0.43% (n = 340,000); response, % (test concentration not listed); P07550; Am2.2-beta2AR cells, FAP receptor internalization, flow cytometry; reference of the scale not given here;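 active means response above a set limit, near 3 SD of response in nonfluorescent compounds, cut at about 42% in these data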;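 further: stock transfer was 100 nL into about 11 µL; a reference agonist was the positive control; negative values mostly stem from fluorescent compounds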
# UCH37 DUB inh: inhibitors of human deubiquitinating enzyme UCH37; Q9Y5K5; purified proteasome/UCH37, Ub-AMC cleavage fluorescence; inhibition, % (test concentration not listed); actives 0.33% (n = 330,000);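 active means mean of two replicates above 20%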;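 further: 0% = compound-free wells with enzyme and 100% = wells lacking proteasome; stock transfer was 100 nL into about 20 µL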
# Target sequence (Q9Y5K5 whole entry, looked up): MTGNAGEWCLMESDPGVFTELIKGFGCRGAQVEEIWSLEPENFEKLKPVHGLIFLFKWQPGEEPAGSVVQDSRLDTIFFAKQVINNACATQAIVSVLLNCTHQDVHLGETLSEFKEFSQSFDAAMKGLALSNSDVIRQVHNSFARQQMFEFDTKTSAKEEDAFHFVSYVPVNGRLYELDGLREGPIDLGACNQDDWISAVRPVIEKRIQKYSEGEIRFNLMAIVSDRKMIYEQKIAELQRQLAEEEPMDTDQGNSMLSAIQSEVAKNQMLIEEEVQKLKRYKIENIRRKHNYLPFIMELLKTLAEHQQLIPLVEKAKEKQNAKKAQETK
#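 Material: Human UCH37 enzyme supplied as purified proteasome complex | Schedule: 30 min preincubation with enzyme, 25 min cleavage at room temperature | Detection: AMC fluorescence 355/460 nm | Measure: % inhibition of Ub-AMC cleavage fluorescence | Controls: Wells without proteasome as full block, compound-free enzyme plus substrate as uninhibited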
# ALR inh: inhibitors of human sulfhydryl oxidase ALR. P55789. purified ALR, DTT oxidation, H2O2 HRP-luminol luminescence. inhibition, % (no concentration beside the values). actives 3.8% (n = 290,000);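 active means mean and each replicate at 75% or more; inconclusive means only one of the two met; inactive means neither met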;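 further: stock transfer was 7.5 nL into about 7.5 µL; 0% = neutral wells and 100% = wells with inactivated enzyme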
# Target sequence (P55789 whole entry, looked up): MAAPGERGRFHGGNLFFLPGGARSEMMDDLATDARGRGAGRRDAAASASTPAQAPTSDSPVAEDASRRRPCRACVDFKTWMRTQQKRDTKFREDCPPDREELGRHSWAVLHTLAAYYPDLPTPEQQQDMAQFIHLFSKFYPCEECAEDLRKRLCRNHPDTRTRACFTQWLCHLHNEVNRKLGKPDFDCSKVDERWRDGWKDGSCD
# FGF22 binding: shifts melting point of recombinant human FGF22 | Q9HCT0 | recombinant FGF22 thermal shift, SYPRO orange fluorescence; percent of sucrose octasulfate shift, DMSO zero | calls only at 9.99 µM | actives 1.5% (n = 340,000);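 active means melting point raised past a set limit in the mean and every replicate; inconclusive means no clear call; three in four hits are not shown here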
# Target sequence (Q9HCT0 whole entry, looked up): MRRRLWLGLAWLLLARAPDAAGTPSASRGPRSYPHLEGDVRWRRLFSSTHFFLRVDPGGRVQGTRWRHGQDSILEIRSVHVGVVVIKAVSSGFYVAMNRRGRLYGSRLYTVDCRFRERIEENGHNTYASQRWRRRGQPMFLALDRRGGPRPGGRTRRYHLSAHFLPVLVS
# rRNA inh HTS OD600: further read-out of rRNA inh HTS, marked with its call; OD600 change, %; measured here: OD600 growth;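 optical density of the mix in the first replicate; 0 = DMSO median and -100 = no signal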
# rRNA inh HTS RFP: second read-out of rRNA inh HTS, no call of its own (marks repeat the call); RFP signal change, %; measured here: RFP humanized mutant strains;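 first replicate; 0 = DMSO median and -100 = no signal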
# * marks the source's active call; other numbers are inactive results; i = inactive; ? = inconclusive; nt = no result given. An excerpt, so the mix of outcomes need not match the whole.
SMILES,Ecoli growth,HNF4A DNA FP,rRNA inh HTS,rRNA inh HTS OD600,rRNA inh HTS RFP,B2AR ag,UCH37 DUB inh,ALR inh,FGF22 binding
CN(C(=O)c1cc2sccc2n1C)C1CCCCC1,0.7,3.2,nt,nt,nt,-24,1.6,3,nt
CN(CC(=O)Nc1nccs1)S(=O)(=O)c1ccc(F)cc1,0.71,-1.6,nt,nt,nt,2,-0.6,3,nt
Nc1nc(C(=O)N2CCOCC2)nn1S(=O)(=O)c1ccc(Cl)cc1,0.68,2.8,nt,nt,nt,-1,1.0,nt,nt
Cc1nnc(SCc2ccc(C(=O)c3ccc(Cl)cc3)o2)n1-c1ccccc1,0.66,4.2,-32*,-23*,3.6*,-9,4.3,-18,i
Cc1cc(OCCN2CC(C)OC(C)C2)ccc1[N+](=O)[O-] (configuration not stated),0.71,0.3,nt,nt,nt,4,8.1,nt,nt
CCOc1cc(CNCCO)c(Cl)cc1OCC(=O)NCCc1ccccc1,0.71,2.1,nt,nt,nt,2,0.4,-6,nt
COc1ccc(-c2csc(C(C)(O)c3ccc(OC)cc3)n2)cc1 (configuration not stated),nt,0.5,-22,-31,-2.9,nt,nt,nt,i
CCOC(=O)C(=O)N/N=C/c1ccc(F)cc1,nt,-1.3,18,6,1.2,-2,nt,-11,i
COc1cc(/C=C/C(=O)Nc2ccc3[nH]c(=O)[nH]c3c2)cc(OC)c1OC,0.69,4.8,-16,-14,3.4,0,0.1,-16,i
CC(C)(C)NC(=O)c1nc2ccccc2s1,0.74,0.5,nt,nt,nt,-4,-0.4,nt,nt
Cc1ccc(C=C2SC(=S)N(CCCC(=O)Nc3cccc(C(=O)O)c3)C2=O)cc1,nt,0.2,16,14,46,nt,nt,nt,i
Cc1cc[n+](C2=C([O-])c3ccccc3C(=O)/C2=N\S(=O)(=O)c2cccs2)cc1C,0.64,0.7,17,12,4.2,4,6.6,-18,i
O=C(O)COc1ccccc1/C=N/NC(=O)CSc1nc2ccccc2c(=O)n1-c1ccc(Cl)cc1,nt,-1.0,8,11,-1.8,7,nt,-1,i
O=C(NCC(c1cccs1)N1CCOCC1)c1cc(-c2ccccn2)nc2ccccc12 (configuration not stated),0.7,1.4,5,11,-4.9,-8,3.6,-7,i
Fc1cccc(COc2ccccc2C(=S)N2CCCC2)c1,0.71,-2.5,-30*,21*,-3.2*,-6,5.2,0,i
CC(=O)c1c(N2CCN(C)CC2)[nH]c(-c2ccccc2)nc1=S,0.71,12,nt,nt,nt,4,3.0,12,nt
COC(=O)c1ccc(NC(=O)Cn2nc(C)cc2C)cc1,0.7,-0.8,19,10,-1.0,-3,-1.8,-10,i
CCSc1nnc(NC(=O)CSc2nc3c(c(=O)n2CC)SC(C)C3)s1 (configuration not stated),0.71,-1.2,nt,nt,nt,-12,1.1,6,nt
O=C(/C=C/c1ccccc1)Nc1cccc(C(=O)NCCc2ccccc2)c1,nt,3.0,24,22,1.5,22,nt,nt,i
O=c1c2ccc(Cl)cc2nc2n1CC/C2=C\c1cccc(O)c1,0.72,2.2,8,3,23,-2,-3.7,2,i
COc1ccc(S(=O)(=O)N2CCOC23CCN(S(=O)(=O)c2cccs2)CC3)cc1,0.72,1.0,1,1,-0.8,7,3.3,nt,i
Cc1c(CC(=O)N[C@H](C(=O)O)C(C)C)c(=O)oc2cc3c(cc12)CCC(C)(C)O3,0.69,0.8,7,7,-2.4,0,i,-6,i
O=C(NCc1ccco1)c1cnc2ccccn2c1=O,0.71,-1.0,8,6,1.3,-7,-8.4,-9,i
CC(=O)Nc1ccc(C(=O)OCC(=O)NCc2ccc(Cl)cc2)cc1,0.66,nt,nt,nt,nt,nt,-0.7,-2,nt
CCOC(=O)CSc1nc(-c2ccccc2)nc2c1oc1ccccc12,0.73,0.1,nt,nt,nt,5,2.5,2,nt

# Of the compounds above, these contain fluorine:
SMILES,Ecoli growth,HNF4A DNA FP,rRNA inh HTS,rRNA inh HTS OD600,rRNA inh HTS RFP,B2AR ag,UCH37 DUB inh,ALR inh,FGF22 binding
CN(CC(=O)Nc1nccs1)S(=O)(=O)c1ccc(F)cc1,0.71,-1.6,nt,nt,nt,2,-0.6,3,nt
CCOC(=O)C(=O)N/N=C/c1ccc(F)cc1,nt,-1.3,18,6,1.2,-2,nt,-11,i
Fc1cccc(COc2ccccc2C(=S)N2CCCC2)c1,0.71,-2.5,-30*,21*,-3.2*,-6,5.2,0,i

# Later entries.
SMILES,Ecoli growth,HNF4A DNA FP,rRNA inh HTS,rRNA inh HTS OD600,rRNA inh HTS RFP,B2AR ag,UCH37 DUB inh,ALR inh,FGF22 binding
CCCCCN(C(=O)CCC(=O)OCc1cc(C(C)=O)ccc1OC)c1c(N)n(CCCC)c(=O)[nH]c1=O,0.62,0.9,5,10,-3.1,-7,0.6,0,i
CC(C)Cc1nnc(NC(=O)C2CC(=O)N(c3ccc4c(c3)OCCO4)C2)s1 (configuration not stated),0.64,-3.1,nt,nt,nt,1,-2.4,-4,i
N#Cc1c(-c2ccc(Cl)cc2)nc2n(c1=O)CCCS2,0.65,-1.2,nt,nt,nt,-7,-1.6,-6,nt
CC(Sc1nncn1C)C(=O)NCc1ccc2c(c1)OCO2 (configuration not stated),0.69,-2.8,10,-4,2.1,-1,4.3,nt,i
CN1CC=C2C(C#N)=C(N)C(C#N)(C#N)[C@H](c3cccs3)[C@H]2C1,nt,-75,nt,nt,nt,-19,nt,-16,nt
O=C(Cc1ccccc1)Nc1cccc(S(=O)(=O)N2CCCCCC2)c1,0.63,-1.8,8,-33,-1.7,5,4.0,-1,i
O=C(O)CNC(=S)N(Cc1ccccc1Cl)C1CCCCC1,0.65,0.4,9,4,1.0,8,1.4,0,nt
Cc1ccc(C)c2[nH]c(=O)c(CCNC(=O)c3ccc(Br)o3)cc12,0.66,3.5,-12,-13,-12,0,-4.6,-1,i
S=C(c1ccccc1)N1CCN(c2ccccc2)CC1,0.67,-4.6,-16,-19,-2.2,-2,2.4,nt,i
CC1=CC(C)(C)N(C(=O)CN2C(=O)c3ccccc3C2=O)c2ccccc21,0.69,-0.3,-24,-16,4.2,-3,-2.1,6,i
CCn1c(-c2cc(-c3ccccc3OC)nc3ccccc23)n[nH]c1=S,0.72,4.7,-3,-6,5.5,-7,-15,-3,i
COc1ccc(N(C(=O)Cn2nnc3ccccc32)C(C(=O)NCc2ccco2)c2cccnc2)cc1 (configuration not stated),0.79,3.6,nt,nt,nt,4,1.3,-9,nt
COc1cccc(CC2CC(=O)N(c3ccc4c(C)cc(=O)oc4c3)C2=O)c1 (configuration not stated),0.7,-0.3,7,16,1.5,4,0.8,nt,i
O=C(NNc1cc(Cl)ccc1Cl)c1c(F)cccc1Cl,0.62,6.6,-25,-22,-2.9,-1,1.1,28,i
COCc1cc(C)nc(OCC(=O)N/N=C/c2cccc(OC)c2)c1C#N,nt,4.8,nt,nt,nt,2,nt,1,nt
Cc1nn(C2CCS(=O)(=O)C2)c(Cl)c1/C=C/C(=O)OCC(=O)Nc1ccccc1OC(F)F (configuration not stated),nt,0.5,nt,nt,nt,1,-0.6,-2,nt
Cc1noc(C)c1C(=O)OCC(=O)C12CC3CC(CC(C3)C1)C2,0.64,-3.0,-1,3,0.3,2,-1.6,3,i
Cc1ccc2c(c1)-c1cc(C)nn1C(c1ccc3c(c1)OCO3)N2 (configuration not stated),0.65,-3.9,0,-6,-6.7,6,-37,44,nt
c1ccc(-c2sc3ccccc3c2-c2ccc(OCCN3CCCC3)cc2)cc1,nt,2.3,-41,-54,-3.3,68*,nt,-8,i
CCC(=O)N(C)CCc1cc2c(c(OC)c1/C=N/Nc1ccc(C(=O)O)cc1)OCO2,nt,-0.7,-1,-4,-7.4,-6,nt,99*,nt
C=CCN=C1S/C(=C/c2ccc([N+](=O)[O-])cc2)C(=O)N1CC=C,0.66,-0.3,-12,-6,-1.3,-5,9.4,-4,i
O=C1CC(c2ccc(F)cc2)CC2=C1C(c1ccc([N+](=O)[O-])o1)Nc1ccccc1N2 (configuration not stated),0.6,1.6,-43,-42,-7.2,8,6.6,nt,i
CCN(CC)CCC(=O)Nc1ccc2c(c1)N(C(=O)CN(CC)CC)c1ccccc1CC2,0.78,-1.6,nt,nt,nt,6,-3.1,nt,nt
CCOC(=O)NC(=O)/C(C#N)=C/c1ccc(N(C)C)cc1,nt,56*,12,6,8.1,13,nt,nt,nt
CCn1c(COc2ccc(C)cc2)nnc1SCC(=O)Nc1ccc(S(N)(=O)=O)cc1,0.69,0.3,nt,nt,nt,6,4.7,3,nt

# (list continues)
SMILES,Ecoli growth,HNF4A DNA FP,rRNA inh HTS,rRNA inh HTS OD600,rRNA inh HTS RFP,B2AR ag,UCH37 DUB inh,ALR inh,FGF22 binding
COC(=O)C1CCN(C(=O)COC(=O)c2ccc3[nH]c4c(c3c2)CCCC4)CC1,0.69,-0.3,-17,-26,2.7,1,-2.6,12,nt
COc1ccc(C(O)c2ncc(-c3ccccc3)[nH]2)c(OC)c1 (configuration not stated),nt,-0.2,1,6,-1.1,nt,nt,nt,i
CSc1nnc(-c2ccc(F)cc2)o1,0.68,-3.5,nt,nt,nt,6,5.1,1,nt
CC1Cc2ccccc2N1C(=O)COC(=O)CSc1ccc(F)cc1 (configuration not stated),0.68,1.7,-7,-6,2.6,2,5.6,-17,i
O=C(Cn1cnnn1)NCc1ccccc1,0.62,-0.6,10,4,-0.8,0,-0.8,-4,i
O=C(Nc1nc2ccccc2s1)c1ccc(OCC2CCCO2)cc1 (configuration not stated),0.64,3.4,-2,2,-2.5,2,-1.4,nt,i
COc1ccc(NC(=O)c2cc([N+](=O)[O-])ccc2N2CCN(C)CC2)cc1,0.69,-4.0,17,12,-2.8,-4,9.3,1,i
O=C(CCc1nnc(CCCc2ccccc2)o1)NCC(F)(F)F,0.68,-1.7,18,11,1.3,-6,-0.2,-8,i
CC(C)c1cc(C(=O)N2CCCC(Nc3ccc(F)c(F)c3)C2)nc(N)n1 (configuration not stated),0.69,0.9,5,11,-1.4,-3,-8.1,3,i
COc1ccccc1/C=N/n1nnnc1N,nt,-1.8,8,0,2.4,9,nt,-8,i
N#C/C(=N\Nc1ccc(Cl)cc1)C(=N)N1CCCCCC1,nt,8.4,24,25,0.6,1,nt,nt,i
CCC1Sc2ccc(S(=O)(=O)CCC(=O)N3CCc4ccccc43)cc2NC1=O (configuration not stated),0.64,-0.3,2,6,-0.6,4,0.3,0,i
CCCCCCCOc1ccc(OC(=O)c2ccncc2)cc1,0.71,-3.1,11,8,-6.2,5,1.2,-7,i
COc1cc(C(=O)NC(C)Cc2cccs2)cc(OC)c1OC (configuration not stated),0.69,-0.6,11,4,-0.6,1,-1.3,-3,i
CCOC(=O)CCn1nc(-c2ccc(C)cc2)c2ccccc2c1=O,0.71,-0.6,-29,-28,-1.0,3,4.5,-33,i
Cc1occc1C(=O)N/N=C/c1c(O)ccc2ccccc12,nt,0.4,4,6,-2.6,10,nt,-11,i
NS(=O)(=O)c1ccc(NC(=O)c2cc(=O)c3ccccc3o2)cc1,0.7,-0.4,-2,9,0.4,-1,3.5,0,i
Nc1ccc(CN2CCOCC2)cc1,0.69,-5.6,16,21,0.1,-19,-1.4,0,i
O=C(CN1C(=O)c2ccccc2S1(=O)=O)NC1CC2CCC1C2 (configuration not stated),0.75,-2.0,6,4,2.2,-15,5.7,?,i
Cc1ccc(S(=O)(=O)C(CCC(=O)c2ccc(Cl)cc2)C(N)=O)cc1 (configuration not stated),0.68,-2.9,nt,nt,nt,-4,1.4,-3,nt
COc1cc(/C=C/C(=O)OCC(=O)NC(=O)NCc2ccco2)ccc1OC(F)F,0.7,-1.0,0,-1,4.7,1,-4.8,9,i
